Screens deposited in PubChem by Johns Hopkins Ion Channel Center.
KCNQ2 inh: KCNQ2 channel blockers in CHO-K1 cells – cell-based, FluxOR thallium flux, B-score, primary screen (AID 2156) | 1.1% of 310,000 active | O88943 | 20 min; hits give low values; only compounds with negative scores are shown here; some inactives read as strong as hits | B-score at 10 µM;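 active = fluorescence ratio B-score at most minus 3 library SDs, with starting brightness B-score within 2 library SDs, cut at about -5.5 in these data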
Target sequence (O88943 whole entry, looked up): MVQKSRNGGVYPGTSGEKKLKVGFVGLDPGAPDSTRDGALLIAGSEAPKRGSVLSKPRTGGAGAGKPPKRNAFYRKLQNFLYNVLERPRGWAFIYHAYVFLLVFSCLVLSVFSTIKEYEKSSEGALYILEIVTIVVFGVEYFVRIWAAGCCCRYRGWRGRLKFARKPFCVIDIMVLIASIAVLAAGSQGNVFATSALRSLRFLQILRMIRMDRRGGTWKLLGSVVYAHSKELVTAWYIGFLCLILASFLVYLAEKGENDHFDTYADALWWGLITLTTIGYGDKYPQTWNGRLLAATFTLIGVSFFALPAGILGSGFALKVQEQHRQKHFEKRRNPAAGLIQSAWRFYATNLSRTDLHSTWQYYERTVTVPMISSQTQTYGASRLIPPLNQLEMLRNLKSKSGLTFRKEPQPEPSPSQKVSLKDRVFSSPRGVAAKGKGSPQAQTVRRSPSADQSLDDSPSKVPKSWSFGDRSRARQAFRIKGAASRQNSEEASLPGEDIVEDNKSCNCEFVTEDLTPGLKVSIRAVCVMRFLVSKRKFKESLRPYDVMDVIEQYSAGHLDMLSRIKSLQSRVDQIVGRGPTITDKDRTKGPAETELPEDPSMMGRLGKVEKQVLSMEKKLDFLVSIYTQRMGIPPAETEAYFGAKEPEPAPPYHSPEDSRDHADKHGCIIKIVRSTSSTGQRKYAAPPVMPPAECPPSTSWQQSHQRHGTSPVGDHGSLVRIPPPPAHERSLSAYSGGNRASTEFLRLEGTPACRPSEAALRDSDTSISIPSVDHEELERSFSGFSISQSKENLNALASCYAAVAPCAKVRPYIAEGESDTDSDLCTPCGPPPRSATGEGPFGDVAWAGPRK
KCNQ2 inh baseline: further read-out of KCNQ2 inh, marked with its call; B-score; measured here: initial fluorescence intensity artifact check;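 brightness before thallium and not channel activity; 0 = typical well and far values either way flag optical interference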
Numbers without * were called inactive; i = inactive. An excerpt. The share of hits here may be higher or lower than overall.

Compound	KCNQ2 inh	KCNQ2 inh baseline
O=C(O)c1ccc2nc(-c3ccco3)c(-c3ccco3)nc2c1	i	0.62
O=C1N=C(N2CCCCC2)S/C1=C\c1ccncc1	i	-2.22
O=C(COc1ccc(Cl)cc1Br)Nc1ccccc1N1CCCC1	i	0.4
Cc1cc(C)nc(SCc2ccc(C(=O)N/N=C/c3ccncc3)cc2)n1	i	0.6
COc1ccccc1C(=O)NCC(c1cccs1)N1CCc2ccccc21 (stereo not drawn)	-7.15*	-1.68*
Cc1ccc(-n2c(SCC(=O)N3c4ccccc4Sc4ccccc43)nnc2-c2ccncc2)cc1	i	-0.68
Cc1cc(Cl)cc2sc(NC(=O)c3ccco3)nc12	i	0.72
COc1ccccc1N1CCN(Cc2ccc(-c3ccccc3[N+](=O)[O-])o2)CC1	i	0.2
O=C(Nc1ccc(Br)cc1)c1ccc(CSC2=NCCS2)cc1	i	-0.27
CCCCN(C1CCS(=O)(=O)C1)S(=O)(=O)c1ccc(OC)cc1 (stereo not drawn)	i	-0.39
O=C(CSc1ccc(Cl)cc1)N1CCC(c2nc3ccccc3s2)CC1	i	0.67
Cc1cc(C)cc(NC(=O)Nc2cccc(S(N)(=O)=O)c2)c1	i	0.61
O=C(Nc1ccc2c(c1)OCO2)C1CCCN1C(=O)Nc1ccccc1F (stereo not drawn)	i	0.61
CCC(C)n1cnc2c(c1=O)c1nc3ccccc3nc1n2-c1ccc2c(c1)OCCO2 (stereo not drawn)	i	-1.62
O=C(Nc1cccc2ccccc12)/C(Cl)=C/c1ccccc1	i	-0.14
Cc1ccc(-c2nnc(SCC(=O)NC3CCCC3)n2C)cc1	i	1.25
CCC1CCC(N2CCN(c3ccc([N+](=O)[O-])cc3)CC2)CC1 (stereo not drawn)	i	-0.59
CN(C)CCCn1cnc2c(c1=N)C(c1ccccc1)c1ccc3ccccc3c1O2 (stereo not drawn)	i	-0.86
NC(=O)c1ccccc1N=Cc1cccnc1	i	-0.3
Cc1cc(C2=CC(C)(c3cc(C)oc3C)Nc3nc(C(F)(F)F)nn32)c(C)o1 (stereo not drawn)	i	-1.24
Cc1ccc(C(=O)NC(NCc2ccco2)C(Cl)(Cl)Cl)cc1 (stereo not drawn)	i	-0.81
COc1ccc(C(=O)Nc2ccc(S(=O)(=O)NC(C)=O)cc2)cc1[N+](=O)[O-]	i	0.57
O=C(NC1=NCCS1)c1cc(-c2cccnc2)nc2ccccc12	i	-0.75
CC(=O)N1CC[n+]2c(-c3ccc(Cl)cc3)csc21	i	-1.2
COC(=O)c1cc2occc2n1CC(=O)N(C)C1CCCCC1	i	1.04
CSc1nc2ccc(NC(=O)C3CC(=O)N(Cc4ccccc4)C3)cc2s1 (stereo not drawn)	i	-1.19
Cc1ccc(S(=O)(=O)NCC(=O)NCC(=O)N2CCC(C)CC2)cc1	i	-1.16
COc1ccc(NC(=O)Nc2ccccc2F)cc1Cl	i	-1.57
O=C(CCc1ccccc1)NC(NC(=S)Nc1ccc(Br)cc1)C(Cl)(Cl)Cl (stereo not drawn)	i	-0.21
COCCNCC(=O)Nc1ccc(OC(F)(F)F)cc1	i	-1.95

3 compounds from above, ordered by the value under KCNQ2 inh baseline, largest number first.
Compound	KCNQ2 inh	KCNQ2 inh baseline
CSc1nc2ccc(NC(=O)C3CC(=O)N(Cc4ccccc4)C3)cc2s1 (stereo not drawn)	i	-1.19
CCC(C)n1cnc2c(c1=O)c1nc3ccccc3nc1n2-c1ccc2c(c1)OCCO2 (stereo not drawn)	i	-1.62
COc1ccccc1C(=O)NCC(c1cccs1)N1CCc2ccccc21 (stereo not drawn)	-7.15*	-1.68*

Going on with the list.
Compound	KCNQ2 inh	KCNQ2 inh baseline
CCn1c(=O)cc(OCC(=O)NC(C)c2ccc3c(c2)OCCO3)c2ccccc21 (stereo not drawn)	i	-1.02
O=C(N/N=C/c1cccc([N+](=O)[O-])c1)C1CC(=O)N(c2ccc(Cl)cc2)C1 (stereo not drawn)	i	0.1
CCCOC(=O)/C(C(N)=NCc1ccccc1)=C(\O)OCCC	i	-1.27
O=C(NCCN1CCOCC1)C12CC3CC(C1)CC(c1ccccc1)(C3)C2	i	0.21
Cc1cc(C)n(CCC(=O)N2CCCC(Nc3ccc(F)cc3)C2)n1 (stereo not drawn)	i	-0.02
CC(C)CNc1nnnc2c1sc1nc(N3CCOCC3)c3c(c12)CCCC3	i	-0.12
COc1ccc(NC(=O)c2cc3nc(-c4ccccc4)cc(C)n3n2)cc1OC	i	-1.51
c1ccc(C2=NN(c3ccccc3)C(c3ccco3)C2)cc1 (stereo not drawn)	i	-0.31
O=C(NCc1ccccc1Cl)c1cc(=O)[nH]c2ccccc12	i	-1.62
Cc1ccc[n+](-c2[nH]c(=O)sc2/C=N/N=C(\[O-])c2cccnc2)c1	i	1.57
Cc1ccc2c(c1)-c1c(ssc1=S)C(C)(C)N2C(=O)CSC1=NCCS1	i	0.91
CCCn1c(C)nc2c(c1=O)c1nc3ccccc3nc1n2CCC1=CCCCC1	i	-2.69
CC(C)(C)c1ccc(OCc2nc(-c3ccccn3)no2)c(Br)c1	i	1.15
CCOC(=O)C1=C(C)N(c2ccc(OC)cc2)C(=O)/C1=C\c1ccc(O)c(OCC)c1	i	1.11
COC(=O)C1(S(=O)(=O)c2cccc3nsnc23)CC1	i	-0.63
OC(COCC1COc2ccccc2O1)CN1CCN(c2ccccc2F)CC1 (stereo not drawn)	i	4.32
CNC(=S)N/N=C1\C(=O)c2cccc3cccc1c23	i	19.3
CC(C)(C)c1ccc(CN2C(=O)CSC2=O)cc1	i	1.69
NCCCNC(=O)Cn1c(=O)c2c3c(sc2n(Cc2ccccc2)c1=O)CCCC3	i	-0.09
O=C(NCC1CCCO1)c1nn2c(C(F)(F)F)cc(-c3cccs3)nc2c1Br (stereo not drawn)	i	0.1
COc1ccc(C(=O)OCC(=O)Nc2c(C)cccc2C)c(OC)c1OC	i	0.48
COc1ccc(Nc2nccc(N(C)C)c2C#N)cc1	i	1.08
O=C(CSc1nnc2sc3ccccc3n12)NCc1ccc2c(c1)OCO2	i	0.43
CCOc1ccc(S(=O)(=O)N2CCN(C(=O)CCOc3ccccc3C)CC2)cc1	i	0.44
c1cnc(SCCOc2cccc3ccccc23)nc1	i	1.92
Cc1cccn2c(=O)c(C=O)c(N3CCN(C)CC3)nc12	i	0.85
Cc1ccc(N(CCC#N)C(=O)COC(=O)C2CCN(S(=O)(=O)c3ccc(C)c(C)c3)CC2)cc1	i	-0.01
CC(C)CC(=O)N/C(N)=N/c1nc2ccccc2o1	i	-0.96
O=C(NC(=S)Nc1ccc(S(=O)(=O)N2CCCCC2)cc1)c1ccc(Cl)cc1	i	1.71
COCC(C)n1c(C)cc(C(=O)CN2C(=O)NC(Cc3c[nH]c4ccccc34)C2=O)c1C (stereo not drawn)	i	1.32

(cont.)
molecule	KCNQ2 inh	KCNQ2 inh baseline
O=C(O)CCn1c(CO)nc2ccccc21	i	0.03
CCN(CC)CCCn1c2c(c(SCC(=O)Nc3cccc4ccccc34)nc1=O)CCC2	i	1.13
Cc1onc(-c2ccccc2)c1-c1ccc(S(N)(=O)=O)cc1	i	-0.01
CC(C)(C)NC(=O)c1ccc2nccnc2c1	i	-0.9
O=C(c1cccc(Oc2c(Cl)cccc2[N+](=O)[O-])c1)N1CCCCC1	i	-0.01
CCOC(=O)c1ccc2[nH]c3c(c2c1)CCCC3	i	-0.96
COc1cc(/C=N/c2oc(-c3ccccc3)cc2C#N)ccc1O	i	0.19
CCN(CC)c1nc(OCCNC(=O)Nc2ccccc2)nc(N(CC)CC)n1	i	0.6
Cc1cccc(CSC2=NCCN2S(=O)(=O)c2ccc(F)cc2)c1	i	0.53
CCOC(=O)c1c(NC(=O)COC(=O)Cc2n[nH]c(=O)c3ccccc23)sc(C(=O)N(C)C)c1C	i	-2.71
CCCCC1=CC2=CC(=O)C(C)(OC(=O)CC)C(=O)C2=CO1 (stereo not drawn)	i	0.04
CCCCCCNCCn1cnc2c(N)ncnc21	i	0.61
CCC1(CC)NC(=O)N(CC(=O)OCn2nnc3ccccc3c2=O)C1=O	i	-0.35
COc1cc(/C=C/C(=O)O)ccc1S(=O)(=O)N1CCCc2ccccc21	i	-1.68
COc1ccc(C(=O)N/C(=C\c2cn(C)c3ccccc23)C(=O)N2CCOCC2)cc1	i	0.4
CN(c1ccccc1)c1nc(N)c([N+](=O)[O-])c(NCCO)n1	i	0.85
CC1=C(C(N)=O)C(c2cccs2)n2ncnc2N1 (stereo not drawn)	i	-1.58
Cc1ccc(-c2ccc(C(=O)Nc3cccc(F)c3)o2)c2ccccc12	i	1.01
CC(OC(=O)c1ccc(S(=O)(=O)N2CCCCC2)cc1)C(=O)NC1CCCCC1C (stereo not drawn)	i	2.4
COCCNc1oc(-c2ccc(Cl)cc2)nc1C#N	i	-2.34
CCOC(=O)c1ccc(S(=O)(=O)N2CCN(C(=O)CSc3nc4ccccc4o3)CC2)cc1	i	-1.94
O=S(=O)(Nc1ccc(N=Nc2ccc(O)c3ccccc23)cc1)c1ccccc1	i	-0.06
COc1ccccc1CN1C(=O)CNC1=S	i	0.75
Cc1ccccc1NC1=CC(=O)CC(C)(C)C1	i	-0.05
CCCCCC(=O)N1CCN(c2ccc(C(C)=O)cc2F)CC1	i	-0.07

Continued:
molecule	KCNQ2 inh	KCNQ2 inh baseline
C=CCn1c(SCC(=O)Nc2ccc3c(c2)OCO3)nnc1-c1ccccc1	i	0.02
COc1ccc(O[C@H]2C=C[C@@H](c3ccccc3)O[C@@H]2COC(=O)CC/C(C)=N/O[C@@H](C)CN2CCCCc3nc(C)c(C)cc32)cc1	i	-3.18
O=C(/C=C/c1ccc(-c2ccccc2[N+](=O)[O-])o1)c1ccc(Br)cc1	-7.22*	-0.03*
Cc1c(CCOC(=O)C23CC4CC(CC(C)(C4)C2)C3)sc[n+]1Cc1ccccc1	i	-1.23
Cc1noc(C)c1C(=O)OCC(=O)Nc1cc(Cl)ccc1Oc1ccccc1	i	1.61
CCN(CC)C(=O)COC(=O)c1ccc(O)cc1	i	0.72
O=C(O)c1ccc(CNC(=O)c2ccc3c(c2)OCCO3)cc1	i	0.8
O=C(Nc1nnc(SCc2c(Cl)cccc2Cl)s1)C1CC(=O)N(c2ccc3c(c2)OCCO3)C1 (stereo not drawn)	i	0.03
COc1ccc(-n2nc3c(N)n[nH]c3cc2=O)cc1	i	2.14
CC1CN(C(=S)Nc2ccccc2)CC(C)O1 (stereo not drawn)	i	-0.88
Cc1ccc(NC(=O)CSc2nc(N)cc(=O)[nH]2)cc1S(=O)(=O)N1CCOCC1	i	1.19
CCOC(=O)N1CCN(C(=O)CCN2C(=O)COc3ccccc32)CC1	i	-0.79
Cc1cccn2cc(COc3ccc(-c4ccccc4)cc3)nc12	i	-0.09
COc1ccc(CC(=O)OCC(=O)c2ccc(OC)cc2)cc1	i	-0.43
CN(Cc1cn(C)nc1-c1cccc(Cl)c1)Cc1nccn1C	i	1.95
NC(=S)N/N=C\c1ccc(-c2cccc(Cl)c2Cl)o1	i	1.43
Cc1ccc2c(nc3s/c(=C\c4ccc(-c5ccccc5C(=O)O)o4)c(=O)n32)c1C	i	14.8
O=C(OCC(=O)N1CCN(C(=O)c2ccco2)CC1)c1cc(-c2ccco2)nc2ccccc12	i	-1.56
CN1C(=O)C(C)(C)c2cc(S(=O)(=O)NCC3CCC(C(=O)NCc4ccccc4)CC3)ccc21 (stereo not drawn)	i	0.9
CCN(c1cccc(C)c1)S(=O)(=O)c1ccc2c(c1)CCCN2C(C)=O	i	-1.44
CCc1c(C)nc2cc(-c3ccc(OC)c(OC)c3)nn2c1NCC1CC1	i	0.2
COC(=O)c1ccc2c(=O)n(CCCN3CCOCC3)c(=S)[nH]c2c1	i	0.51
COc1ccc(/C=C(/C#N)C(=O)Nc2ccc(C)cc2C)cc1C(=O)O	i	1.55
Cc1ccc(Oc2cc([N+](=O)[O-])cc3c2C(=O)Nc2ccccc2O3)cc1	i	0.98
O=C1CC(N2CCC(c3nc4ccccc4s3)CC2)C(=O)N1 (stereo not drawn)	i	-2.51

Compound profiles, from the list above. Screens in order: KCNQ2 inh | KCNQ2 inh baseline
`O=C(O)CCn1c(CO)nc2ccccc21` as listed: i | 0.03
`Cc1ccc(S(=O)(=O)NCC(=O)NCC(=O)N2CCC(C)CC2)cc1` as listed: i | -1.16
`CC(C)CNc1nnnc2c1sc1nc(N3CCOCC3)c3c(c12)CCCC3` as listed: i | -0.12
`CC(C)(C)c1ccc(OCc2nc(-c3ccccn3)no2)c(Br)c1` as listed: i | 1.15
`Cc1ccccc1NC1=CC(=O)CC(C)(C)C1` as listed: i | -0.05

(cont.)
molecule	KCNQ2 inh	KCNQ2 inh baseline
COc1cccc(C2C=C(c3ccc(Br)s3)Nc3ncnn32)c1OC (stereo not drawn)	-6.6*	3.18*
Cc1cccnc1NC(=O)c1ccc(Cl)c(S(=O)(=O)N2CCCC2)c1	i	-0.15
CCOC(=O)Cc1c(C)nc2cc(-c3ccc(C)cc3)[nH]n2c1=O	i	-0.47
CCOC(=O)C(Sc1nn(C)c(=S)s1)C(C)=O (stereo not drawn)	i	1.59
CC(=O)Nc1ccc(-c2csc(Nc3ccc(Cl)cn3)n2)cc1	i	-0.08
COc1ccc(CN2CCC(=O)NC2=O)cc1	i	-2.59
COc1ccc(NC(=O)c2ccc(-n3c(C)ccc3C)cc2)c(OC)c1	i	-1.27
